Screens (PubChem)
A1 inh – caspase 3/7 activation in MEF A1-2A-BIM cells, primary screen, A1 inhibitor project, cell-based, luminescence, HTS; hit rate 0.066% among 330,000; Caspase-Glo 3/7 luminescence, 3 h; percent of clofoctol response, vehicle zero; caspase activation, % (concentration not given with the values);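 active = over half of replicate activation scores above 10%, or exactly half above 10 with the replicate mean above 10; inconclusive = replicate mean below 10 yet half the replicates above 10; inactive = over half of replicates below 10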;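 also: wells of about 30 µL received 50 nL stock; many hits fall short of the cut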
T cruzi inh – inhibitors of intracellular T. cruzi growth, primary screen, luminescence, NIH3T3 host cells; hit rate 1.4% among 300,000; T. cruzi beta-gal in NIH3T3, 90 h; inhibition, % (concentration not given with the values);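 active = mean inhibition across valid replicates above about 55%, limit read from the data; inconclusive = mean below that limit but half or more replicates reach it; inactive = mean below it, under half of replicates reach it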;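 also: signal also drops with host cell toxicity which is not excluded here; 0% = plate median of DMSO wells and 100% = zero luminescence signal; higher percent means less beta-gal luminescence so fewer parasites; stock transfer was 50 nL into about 50 µL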
Beta cell apopt – inhibitors of cytokine-induced beta cell apoptosis, primary screen, luminescence; INS-1E cytokine-induced death, ATP luminescence, 48 h; percent of positive-control rescue, neutral wells zero; hit rate 0.8% among 300,000; protection from apoptosis, % (no concentration beside the values);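 active = all replicates at 75% or more, or half of them and the mean; inconclusive = half reach 75% but not the mean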;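 also: 0% = cytokine-treated negative control wells and 100% = positive control rescue; higher means more ATP so stronger rescue from cytokine killing; wells of about 40 µL received 100 nL stock; the first replicate is given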
RanGTP-Imp inh – inhibitors of RanGTP-importin-beta interaction, primary screen, biochemical, FRET, CFP-Ran, YFP-importin-beta, homogeneous; Ran GTPase (GTP-bound) - importin-beta complex; cell-free CFP-Ran/YFP-importin-beta FRET ratio; inhibition, % (test concentration not listed); hit rate 1.1% among 300,000;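 active = most replicates above 15%; inconclusive = exactly half above 15%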;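 also: 0% = DMSO wells and 100% = Ran loaded with GDP instead of GTP; wells of about 40 µL received 100 nL stock; the first replicate is given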
UCH37 DUB inh – inhibitors of human UCH37 deubiquitinase, primary screen, biochemical, Ub-AMC cleavage, fluorescence; hit rate 0.33% among 330,000; purified proteasome/UCH37; inhibition, % (no concentration beside the values);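 active = mean of two replicates above 20%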;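 also: 0% = compound-free wells with enzyme and 100% = wells lacking proteasome; stock transfer was 100 nL into about 20 µL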
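Reagent: Ub-AMC substrate; assay system: Proteasome-associated human UCH37 deubiquitinase; controls: no-proteasome and no-compound wells; read-out: % inhibition of Ub-AMC cleavage fluorescence; timing: 30 min preincubation with enzyme, 25 min cleavage at room temperature; signal: AMC fluorescence from Ub-AMC cleavage, excitation 355 nm, emission 460 nm; buffer or medium: Tris-HCl pH 7.4 plus ovalbumin, ATP-MgCl2, DTT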
Beta2AR agonist – beta2AR agonists driving receptor internalization, primary screen, cell-based, FAP fluorogen, flow cytometry; hit rate 0.43% among 340,000; Am2.2-beta2AR cells; reference of the scale not given here; AID 504454, 2011; Beta-2 adrenergic receptor (Homo sapiens), P07550; response, % (no concentration beside the values);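 active = response above a set limit, near 3 SD of response in nonfluorescent compounds, cut at about 42% in these data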;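 also: stock transfer was 100 nL into about 11 µL; a reference agonist was the positive control; negative values mostly stem from fluorescent compounds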
LANA-H2A inh – blockers of LANA interaction with H2A/H2B – biochemical, FP readout, HTS, primary screen. cell-free LANA-H2A/H2B peptide, fluorescence polarization. inhibition, % (no concentration beside the values). hit rate 0.6% among 320,000. AID 2629, 2010; in the data active = inhibition mostly above about 10%, no sharp cut-off; inactive = mostly below about 6.7%;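 also: stock transfer was 7.5 nL into about 10 µL; 0% = median of vehicle wells and 100% = median of positive control wells; one replicate is shown; the record names a cut of 25% in any replicate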
Target sequence (Q9QR71 whole entry, looked up): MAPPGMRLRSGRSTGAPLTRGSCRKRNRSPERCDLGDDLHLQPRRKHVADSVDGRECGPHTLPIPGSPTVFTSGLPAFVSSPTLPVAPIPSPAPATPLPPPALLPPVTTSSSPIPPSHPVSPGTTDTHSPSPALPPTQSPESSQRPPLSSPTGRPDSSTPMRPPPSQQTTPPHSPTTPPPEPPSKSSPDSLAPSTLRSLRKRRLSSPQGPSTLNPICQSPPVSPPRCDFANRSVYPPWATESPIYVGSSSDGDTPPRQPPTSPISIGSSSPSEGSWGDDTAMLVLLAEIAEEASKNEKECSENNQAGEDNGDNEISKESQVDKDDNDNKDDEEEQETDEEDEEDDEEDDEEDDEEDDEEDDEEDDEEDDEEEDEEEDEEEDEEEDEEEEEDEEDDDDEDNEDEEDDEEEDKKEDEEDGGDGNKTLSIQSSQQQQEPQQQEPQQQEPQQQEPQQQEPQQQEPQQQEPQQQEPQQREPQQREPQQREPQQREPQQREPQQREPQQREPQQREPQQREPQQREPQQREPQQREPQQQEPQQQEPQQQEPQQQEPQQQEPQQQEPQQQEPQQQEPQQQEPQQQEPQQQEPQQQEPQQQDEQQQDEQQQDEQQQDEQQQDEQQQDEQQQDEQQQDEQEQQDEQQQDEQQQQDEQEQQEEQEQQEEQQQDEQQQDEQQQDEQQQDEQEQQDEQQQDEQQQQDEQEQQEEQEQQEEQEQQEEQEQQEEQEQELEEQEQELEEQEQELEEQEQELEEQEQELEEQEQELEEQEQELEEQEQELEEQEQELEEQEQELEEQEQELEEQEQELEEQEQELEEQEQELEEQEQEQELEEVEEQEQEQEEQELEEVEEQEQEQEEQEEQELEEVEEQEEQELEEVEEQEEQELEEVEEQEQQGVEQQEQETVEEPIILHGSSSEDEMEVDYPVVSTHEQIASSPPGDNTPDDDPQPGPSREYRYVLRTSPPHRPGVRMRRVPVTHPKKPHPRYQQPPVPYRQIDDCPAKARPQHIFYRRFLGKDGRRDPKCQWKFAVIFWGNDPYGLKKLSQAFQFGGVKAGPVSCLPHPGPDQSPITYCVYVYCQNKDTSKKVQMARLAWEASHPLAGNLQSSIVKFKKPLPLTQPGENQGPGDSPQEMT
Calb FLC – C. albicans growth inhibition with fluconazole, primary screen, CaCi-2 strain, Alamar Blue fluorescence; hit rate 0.57% among 300,000; AID 1979, 2009; growth inhibition, % (concentration not given with the values); C. albicans CaCi-2 (fluconazole-resistant clinical isolate) + fluconazole, 48 h;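 active = most replicates above 75%; inconclusive = exactly half above 75%; inactive = most below 75%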;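 also: all wells also contain fluconazole at 8 µg/ml as a sub-toxic cotreatment; 0% = median of DMSO wells and 100% = median of geldanamycin control wells; wells of about 8 µL received 7.5 nL stock; the first replicate is given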
The depositor's hits bear a star; ? = inconclusive; · = no result given; + = active, no number. Rows were taken by chance, and some 4.3% of all compounds hit somewhere here.

SMILES | A1 inh | T cruzi inh | Beta cell apopt | RanGTP-Imp inh | UCH37 DUB inh | Beta2AR agonist | LANA-H2A inh | Calb FLC
O=C(C1COc2ccccc2O1)N1CCn2c(nc3ccccc32)C1 (configuration not stated) | 0.5 | 9 | -6 | 2.1 | 3.9 | -8 | 0.2 | -3
CCC(C)NC(=O)CSc1nc2ccccc2c(=O)n1-c1c(C)n(C)n(-c2ccccc2)c1=O (configuration not stated) | 2.6 | -11 | 3 | -1.9 | -1.1 | 30 | 100* | 7
Cc1ccc(C2c3[nH]c4ccccc4c3C[C@H]3C(=O)N(c4ccccc4C(=O)N4CCC[C@H]4C(=O)O)C(=O)N23)cc1 (some centres not stated) | -0.9 | -21 | -5 | 1.0 | 1.7 | -3 | -1.3 | 2
CCOCCCNC(=S)N1CCC(NC(=O)c2ccco2)CC1 | 0.2 | -7 | -8 | -1.1 | 1.2 | 0 | -5.2 | -3
Cn1c(SCC(N)=O)nnc1-c1cnccn1 | 1.2 | 7 | 1 | -1.1 | -0.6 | 2 | 3.1 | -4
CN(CCC1CCOCC1)C(=O)c1cc(COc2c(F)cccc2F)on1 | -0.5 | 5 | -4 | 1.5 | 0.5 | -1 | 0.5 | -1
C[C@@H]1CC(=O)[C@H]2CC(CO)=CCC[C@@H]2[C@@]1(C)CC/C(=C/CO)CO | 0.4 | · | -3 | · | 2.0 | 0 | 3.9 | ·
CCOC(=O)Cn1c(=NC(=O)CSC(C)=O)sc2cc(F)ccc21 | -0.3 | -8 | 0 | ? | 1.8 | 14 | 2.0 | -4
Cc1ccc(N=Cc2nc(-c3ccco3)oc2O)cc1 | -5.3 | 28 | -17 | ? | 2.9 | -3 | 0.2 | -18
COCCN(C(=O)/C=C/c1ccccc1)c1nnc(-c2cccnc2)s1 | -1.4 | -9 | 1 | -2.6 | 4.6 | -8 | 56* | 19
Cc1ccc2nc(-c3ccc(NC(=O)CSc4ccccc4)cc3)[nH]c2c1 | -4.3 | 30 | · | 1.6 | -38 | 9 | -4.7 | -13
O=C(COc1ccc([N+](=O)[O-])cc1)Nc1ccc(C(=O)Nc2ccccc2C(=O)O)cc1 | 0.4 | -3 | -2 | 4.7 | 7.9 | 3 | 1.7 | -2
O=S(=O)(NC1CCCCC1)c1cccc2nsnc12 | 0.0 | -3 | 0 | 0.5 | 3.5 | 12 | 5.6 | -20
Cn1nc(-c2ccc(Cl)cc2)c2cc(C(=O)N3CCCC3)sc21 | -0.7 | -4 | 17 | -0.8 | 0.9 | -23 | 1.1 | 12
O=C(NC1CCS(=O)(=O)C1)C1CCCC1 (configuration not stated) | -0.3 | -15 | -3 | 0.3 | 0.9 | -4 | -4.8 | 6
CC1Cc2ccccc2N1C(=O)Cn1nnc(-c2ccccc2NC(=O)C2CCC2)n1 (configuration not stated) | 0.6 | 21 | -2 | -0.9 | 1.1 | -1 | -4.6 | -9
CCOC(=O)c1ccccc1NC(=O)COC(=O)CCC(=O)c1ccc(C)cc1 | -0.1 | 0 | -7 | 1.8 | 1.4 | -2 | -1.9 | 1
COc1ccccc1Cn1c(=S)[nH]c2cc(C(=O)NCCCN3CCOCC3)ccc2c1=O | -3.1 | -12 | 3 | -1.8 | 3.7 | 5 | -2.1 | 6
CC(NC(=O)c1ccccc1SCC(=O)N1CCCC1)c1ccccc1 (configuration not stated) | 0.7 | 0 | -6 | 1.2 | 1.1 | -1 | 0.8 | 3
COc1ccc(Cc2nnc(SC)[nH]c2=O)cc1OC | 0.2 | 4 | 0 | -1.3 | 0.8 | -2 | 1.9 | -5
O=C(O)c1ccc(CSc2nc3ccccc3c(=O)n2-c2ccccc2)cc1 | 0.6 | 1 | 2 | 6.2 | 5.9 | 4 | 0.9 | -2
CCCCN(C(=O)CSc1nnc(-c2ccccc2)o1)c1c(N)n(CCC)c(=O)[nH]c1=O | -0.1 | · | -3 | · | 0.0 | 4 | 2.4 | ·
CCN(C(=O)/C=C/c1ccc(OC)cc1)C1CCS(=O)(=O)C1 (configuration not stated) | 1.1 | -13 | -1 | -5.6 | 2.8 | 12 | 5.9 | -2
CCOc1ccc(CCNC(=O)c2ccccc2OCc2c(C)noc2C)cc1OCC | -0.4 | -11 | · | 3.6 | 1.1 | -2 | -0.6 | 2
CCNc1nc(NCC)nc(ON=C(C)C)n1 | 0.2 | -15 | -8 | -0.3 | -3.4 | · | -4.1 | -3
CCOc1ccc(/C=N/Nc2cc(=O)n(C)c(=O)n2C)cc1 | 0.1 | -4 | 1 | -0.3 | · | -3 | · | -2
COc1ccc(NC(=O)CSc2nccn2Cc2ccc(F)cc2)c(OC)c1 | -0.3 | -3 | -15 | 0.3 | 0.7 | 5 | 1.0 | 2
CC(C(=O)Nc1sccc1C(N)=O)N1C(=O)C2CC=CCC2C1=O (configuration not stated) | -0.4 | · | -3 | 4.2 | 5.0 | 0 | 1.0 | -3
CC1Cc2ccccc2N1S(=O)(=O)c1cccc(C(=O)NCc2ccccn2)c1 (configuration not stated) | 0.3 | · | 0 | · | -0.3 | 0 | -3.3 | ·
CCN1CCN(C(=O)c2nn(C)c3c2CS(=O)(=O)c2ccccc2-3)CC1 | -2.2 | -13 | -9 | 2.0 | 1.7 | -2 | 5.7 | -2
O=C1c2ccc([N+](=O)[O-])cc2C(=O)N1c1c[nH]c(=O)[nH]c1=O | -0.5 | -3 | -2 | -0.5 | 1.7 | 13 | 7.2 | -1
C/C(=N\NC(=O)C1CC1)c1ccc2c(c1)OCCO2 | 0.0 | -2 | -3 | -2.2 | · | -14 | -2.0 | -4
Cc1ccc(S(=O)(=O)N(CC(=O)NCC2CCCO2)C2CCCCC2)cc1 (configuration not stated) | 0.8 | 1 | 0 | -0.7 | 0.6 | 5 | 1.9 | 1
CC(=O)c1ccc(N2C(=O)NC3(CCCCC3)C2=O)cc1 | 0.7 | -16 | · | -2.2 | 3.8 | -1 | 1.6 | -1
O=[N+]([O-])c1ccc(N/N=C/c2ccc[nH]2)cc1 | 0.2 | · | 4 | · | · | 9 | + | ·
Nc1ccc2c(c1)N=[N+]([O-])c1cc(N)ccc1C2 | ? | 5 | -1 | 32* | 6.3 | -7 | 9.3 | -9
Nc1nnc(COc2cccc(C(F)(F)F)c2)s1 | 1.5 | -15 | -3 | -2.0 | 4.7 | -8 | 3.6 | -1
Cc1nc(OCc2ccccc2)c2ccccc2n1 | -0.1 | -21 | 4 | -1.2 | 3.5 | 2 | -3.7 | 9
Cc1nc(-c2ccccc2)sc1C(=O)/C=C/N(C)C | -2.8 | 1 | -4 | -2.2 | 12 | -2 | -1.7 | -3
COc1ccc(C(C)=O)cc1CSc1ncccn1 | 0.4 | -3 | 6 | 2.3 | 3.1 | -7 | 2.2 | 11
C#CC(CC)(CC)NC(=O)c1nn(-c2ccccc2Cl)c(C)cc1=O | -0.2 | 0 | -4 | 3.5 | 2.0 | 1 | 1.7 | -4
CCCn1c(CCC(=O)O)nc2cc(S(=O)(=O)N(CC)CC)ccc21 | 0.6 | -2 | -2 | 6.9 | -0.1 | -5 | 4.9 | -2
COc1ccc(CCNC(=O)c2ccc3c(c2)N(Cc2ccccc2)CCS3)cc1OC | -0.9 | 12 | -4 | -3.8 | -186 | 9 | 1.9 | 28
CCOC(=O)CNC(=O)CSc1ncnc2c1cnn2-c1ccc(Cl)cc1 | -6.8 | -2 | -9 | -0.4 | 1.7 | 5 | 6.1 | -4
Cc1nnc(NC(=O)c2ccc(C)c(S(=O)(=O)N3CCCCCC3)c2)s1 | -0.5 | 0 | 1 | 4.7 | 2.4 | 0 | 0.7 | 0
CCOc1ccc(C(C#N)N2CCOCC2)cc1OC (configuration not stated) | 0.4 | -5 | 1 | -0.2 | -1.2 | -1 | -4.7 | -3
COc1ccc(OC)c(S(=O)(=O)Nc2ccc3oc4c(c3c2)C(=O)CCC4)c1 | 0.1 | 7 | -1 | -3.8 | 3.6 | -1 | -5.2 | -31
COC(=O)CCC(=O)c1oc2ccc(Cl)cc2c1NC(=O)CCCN1C(=O)c2ccccc2C1=O | 0.0 | -16 | -5 | 2.5 | 1.6 | -3 | -0.5 | -2
COc1ccc(Nc2nc3ccccc3nc2-n2nc(C)cc2C)cc1 | -0.1 | 15 | 6 | 1.1 | -1.6 | -6 | -9.8 | 5
CC(C)CN1CCN(Cc2nc3ccccc3s2)CC1CCO (configuration not stated) | 1.0 | 28 | -1 | ? | 1.0 | 3 | -1.2 | -7
S=c1[nH]nc(C2CCCCC2)n1/N=C/c1ccccc1 | 0.3 | 5 | -3 | -0.1 | · | 1 | -3.0 | 17
Cc1nn(-c2ccccc2)c(C)c1NC(=O)COC(=O)/C=C/c1ccccc1 | 0.4 | -18 | -6 | 5.4 | 1.6 | 8 | -4.0 | ·
CCOc1ccc(C(=O)COC(=O)C2CCN(c3ccc(C(F)(F)F)cn3)CC2)cc1 | 0.3 | 2 | -2 | 0.7 | 1.4 | 5 | -4.8 | ·
COc1ccc2cc(C(=O)N3CCOCC3)sc(=O)c2c1OC | 0.3 | · | -8 | 4.4 | 2.8 | -8 | 1.4 | -2
COC(CNC(=O)c1cc(C)nn1-c1ccccc1)OC | -0.1 | -6 | -1 | 6.0 | -0.9 | 14 | 2.9 | -4
O=C(CSc1ccc(-c2ccc(Cl)cc2)nn1)N1CCCc2ccccc21 | -0.1 | 33 | -9 | -0.2 | 1.0 | -9 | · | 38
c1ccc(Cc2nc3ccccc3o2)cc1 | -0.7 | -6 | 0 | -0.4 | 4.7 | -2 | 2.0 | -14
O=C(Cc1n[nH]c(=O)c2ccccc12)OCC(=O)c1ccc(F)cc1 | -0.7 | -4 | -2 | 1.5 | 3.8 | -3 | -1.0 | -1
O=C(NCc1ccc(N2CCCC2=O)cc1)c1ccc(F)cc1 | 0.3 | -7 | -4 | 0.1 | 5.7 | -4 | 0.4 | 0
O=C(O)c1cccnc1C(=O)N1CCc2c([nH]c3ccccc23)C1C(F)(F)F (configuration not stated) | 0.2 | -11 | -4 | 1.9 | 4.7 | -5 | 1.9 | 8
Next part
SMILES | A1 inh | T cruzi inh | Beta cell apopt | RanGTP-Imp inh | UCH37 DUB inh | Beta2AR agonist | LANA-H2A inh | Calb FLC
Cc1cccc(Nc2nc(-c3ccccc3)cs2)n1 | -5.1 | 19 | 3 | -0.6 | -0.1 | 0 | -2.3 | -27
Cc1cccc(NC(=O)c2ccc(NS(=O)(=O)c3c(C)noc3C)cc2)c1 | -0.2 | -10 | -5 | 0.5 | 2.6 | -1 | -1.7 | 2
CC1NC(=O)N(C)C2NC(=O)N(C)C(c3ccccc3)C12 (configuration not stated) | -0.1 | -13 | -8 | -1.5 | 1.2 | -1 | 3.6 | -8
CN1CCN(C(=O)c2cc3ccccc3cc2O)CC1 | -0.1 | · | 2 | · | -3.7 | 2 | · | ·
